Screens from PubChem BioAssay.
VDR inhibitor: vitamin D3 receptor (human) inhibition | hit rate 0.93% among 400,000 | AID 504847 | P11473 | VDR-SRC2-3 peptide fluorescence polarization, 2 h | Potency, µM, for inactives: max response, negative = inhibition, actives largely listed as inhibitors; active = well fitted inhibition curve with a large enough effect; inconclusive = small, poorly fitted or top-dose-only effect, or another doubt; inactive = no such curve, though single readings can be large or run the other way; also: series mostly up to about 120 µM
Target sequence (P11473 whole entry, looked up): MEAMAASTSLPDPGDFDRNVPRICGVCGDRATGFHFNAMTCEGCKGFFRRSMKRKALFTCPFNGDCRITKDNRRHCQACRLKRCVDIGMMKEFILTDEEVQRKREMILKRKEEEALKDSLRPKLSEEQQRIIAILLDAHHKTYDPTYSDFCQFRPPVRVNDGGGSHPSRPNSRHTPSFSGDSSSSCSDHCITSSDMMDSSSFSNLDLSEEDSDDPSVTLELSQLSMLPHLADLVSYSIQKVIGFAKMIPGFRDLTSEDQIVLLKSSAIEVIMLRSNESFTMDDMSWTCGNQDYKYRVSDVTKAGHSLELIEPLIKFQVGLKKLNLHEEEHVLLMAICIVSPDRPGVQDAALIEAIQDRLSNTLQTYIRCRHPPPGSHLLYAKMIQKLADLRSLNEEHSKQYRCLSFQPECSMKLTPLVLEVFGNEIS
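Inhibition of the VDR/SRC2-3 peptide interaction is quantified by fluorescence polarization. Compounds (23 nl, pintool) incubate with the reagents for 2 hours at ambient room temperature.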
Starred values were filed as active, the others as inactive; ? = inconclusive; & = joins results of further samples; [ ] = remark or other dose. % is scaled to controls: 0 for no effect and ±100 for the full control effect; potency is read from the fitted curve at half-maximal effect. Some of the compounds tested. The share of hits here may be higher or lower than overall.

mol | VDR inhibitor
COCc1cc(C)n(CC(=O)Nc2ccc(N3CCOCC3)cc2)c(=O)c1C#N | -7%
Cc1nn2c(=O)c3c4c(sc3nc2n1-c1ccccc1)COC(C)(C)C4 | -1%
COc1ccc2nc3ccccc3nc2c1NC(=O)c1ccc(Br)cc1 | 9%
CCCn1nnc(NC(=O)c2ccc(Br)cc2)n1 | -3%
Cc1ccc(-c2cc3c(N4CCN(c5cc(C)ccc5C)CC4)nccn3n2)cc1 | -17%
Cc1cc(SCC(=O)NC(=O)c2cccn2C)nc2ccccc12 | ?
O=C(NC1CCCCC1)c1cccc2c1C(=O)c1ccc(-c3ccc(OC(F)(F)F)cc3)cc1S2(=O)=O | -12%
CC(C)COc1ccc(C(=O)Nc2ncn[nH]2)cc1 | -2%
CCCCN(C(=O)C1=CC=CN2CCS(=O)(=O)N=C12)c1ccccc1 | -3%
Cn1nc2sc3ccccc3n2c(=O)c1=O | 4%
Cc1cccc(C)c1NC(=O)Cn1nc(-c2ccc(Cl)s2)ccc1=O | 18%
CCOC(=O)c1sc2ncn(C(CC)C(=O)OC)c(=O)c2c1C (stereo not drawn) | 12%
O=C(CC(=O)Nc1ccc(Br)cc1)Nc1ccc(Br)cc1 | -11%
Cc1cccc(CNC(=O)Cn2nc(C)n3c(cc4cc(F)ccc43)c2=O)c1 | 23%
N#Cc1cnn2c3c(cnc12)C(=O)N1CCc2ccccc2C1C3 (stereo not drawn) | -1%
CCOC(=O)N1CCN(C(=O)CN2C(=O)COc3ccc(C(C)(C)C)cc32)CC1 | -10%
Cc1cccc(/C(N)=N/OC(=O)COc2ccccc2Cl)c1 | -11%
Cc1ccc(/C=N/NC(=O)c2ccoc2C)s1 | 2%
CC(C)(C)NC(=O)/C(=C/c1cccnc1)NC(=O)c1ccco1 | 5%
COc1cccc(N2C(=O)CSC23C(=O)N(CC(=O)Nc2cc(C)ccc2C)c2ccccc23)c1 (stereo not drawn) | 6%
CCOC(=O)c1nc2ccccc2s1 | -15%
Cc1ccc(NC(=O)C(c2ccccc2)N2CCN(C(=O)c3ccco3)CC2)cc1Cl (stereo not drawn) | -2%
O=C(N/N=C/c1cc([N+](=O)[O-])ccc1O)c1ccc(COc2ccc3c(c2)CCC3)o1 | -3%
Cc1cccc(NC(=O)CN(c2ccc(F)cc2)S(C)(=O)=O)c1 | 1%
CC(=O)Nc1ccc(NS(=O)(=O)c2ccc3[nH]c4c(c3c2)CCCCC4)cc1 | 10%
COc1ccc(C2Nc3ccccc3C(=O)N2Cc2ccco2)cc1COc1c(C)cccc1C (stereo not drawn) | 14µM*
COC(=O)[C@@]1(Cc2ccccc2)C=C[C@@H](C)N1C(C)=O | -3%
CN1/C(=C\C=Nc2cc(S(=O)(=O)N3CCOCC3)ccc2N2CCOCC2)C(C)(C)c2ccccc21 | -7%
CCCCNC(=S)N(CCN(C)C)Cc1cc2cc3c(cc2[nH]c1=O)OCCO3 | 32%[activator]
Cc1ccn(CC(=O)NC2CCCN(Cc3ccc(CC(C)C)cc3)C2)n1 (stereo not drawn) | -2%
CN(CC(=O)O)c1ccc(C(F)(F)F)cc1[N+](=O)[O-] | 20%
Cc1cc(C)c2cc(C#N)c(N3CCCN(C(=S)NCCCN(C)C)CC3)nc2c1 | -8%

Reprinted at random: 3 entries already listed, in no set order.
mol | VDR inhibitor
CCCCNC(=S)N(CCN(C)C)Cc1cc2cc3c(cc2[nH]c1=O)OCCO3 | 32%[activator]
Cc1cc(C)c2cc(C#N)c(N3CCCN(C(=S)NCCCN(C)C)CC3)nc2c1 | -8%
COc1ccc(C2Nc3ccccc3C(=O)N2Cc2ccco2)cc1COc1c(C)cccc1C (stereo not drawn) | 14µM*

New compounds follow.
mol | VDR inhibitor
Cc1ccc(CNc2oc(-c3ccco3)nc2S(=O)(=O)c2ccccc2)cc1 | 9%
CCCCc1c(C)c2cc(C)ccc2[nH]c1=O | -7%
O=C(CNS(=O)(=O)c1cccs1)N1CCCC1 | 24%
COc1cccc(C(N)=O)c1OC(=O)Cc1ccccc1F | -8%
COc1cc2c(=O)n(CCCC(=O)NCC3CCCO3)c(=O)n(CC(=O)c3ccc(F)cc3)c2cc1OC (stereo not drawn) | -13%
COC(=O)Nc1ccc2c(c1)Nc1ccccc1CC2 | -16%
Cc1cccc(C)c1NS(=O)(=O)c1ccc2c(c1)[C@H]1C=CC[C@H]1[C@@H](c1ccc(Cl)cc1)N2 | -21%
O=C(c1ccc(F)cc1)C1CCN(C(=O)c2ccccc2F)CC1 | -14%
CCN(CC)c1ccc(C(=O)N/N=C/c2ccc(OC)cc2OC)cc1 | -1%
C=CCn1c(C)cc(C(=O)COC(=O)/C=C/c2ccc(OC)cc2)c1C | 1%
CCn1ccc2cc(OC)ccc2c1=S | -7%
O=C(CSc1ccc(-c2ccc(F)cc2)nn1)Nc1ccc2c(c1)OCCO2 | -7%
Cc1ccc(CCNC(=O)c2c(C)oc3nc(C)nc(N4CCOCC4)c23)cc1 | 17%
O=C(Nc1ccc(Cl)cc1)Nc1ccccc1Sc1ncc([N+](=O)[O-])s1 | 10µM*
Cc1ccc(NC(=O)C2CCCNC2=O)nc1 (stereo not drawn) | 2%
O=C(CN1C(=O)C(=O)N(Cc2ccco2)C1=O)Nc1ccc(F)c(F)c1F | 1%
c1ccc(-c2ccc(-c3nc(-c4ccccn4)no3)cc2)cc1 | 14%
CC(=O)OC1CC2(C)C(CCC2(O)C(C)=O)C2CCC3C(Cl)C(=O)CCC3(C)C12 (stereo not drawn) | 12%
COc1ccc(OCc2nc3c4c(ncn3n2)-c2ccccc2CC42CCCC2)cc1 | 0%
Cc1ccc(-c2ccc(CCC(=O)O)n2C(C)C)cc1 | 0%
OC(COc1ccc(Cl)cc1)CN1CCCCC1 (stereo not drawn) | 4%
COc1ccc(C(=O)Nc2ccc(S(=O)(=O)N3CCCC3)cc2)cc1 | ?
Cc1ccc(C(=O)CCS(=O)(=O)c2ccc(Br)cc2)cc1 | -26%
Cc1cnc(C(=O)OCc2nc3ccccc3o2)cn1 | 17%
CC(=O)N/N=C/c1ccc([N+](=O)[O-])o1 | -22%
Cc1ccc2c(=O)cc(C(=O)Nc3sc4c(c3C(=O)NCc3ccco3)CCCC4)oc2c1C | -9%
COC(=O)c1ccc(C)cc1 | 0%
O=P(O)(O)OP(=O)(O)OP(=O)(O)O | 7%
CCN(CC)S(=O)(=O)c1cc([N+](=O)[O-])ccc1NNC(=O)Nc1ccc(F)cc1 | 0%
CCCS(=O)(=O)N1CCCC(C(=O)N2CCC(Cc3ccccc3)CC2)C1 (stereo not drawn) | 15%
Cc1cc(C)n(CC(=O)n2c3c(c4ccccc42)CCCC3)n1 | ?
Nc1nonc1-c1nc2ccccc2[nH]1 | -7%
CC1CCCCN1CCNC(=O)C1CCCN(c2ncnc3c2nc2n3CCCCC2)C1 (stereo not drawn) | 3%
CC(=O)NC1(C(F)(F)F)C(=O)NC(C)=C1C#N (stereo not drawn) | -3%
O=C(Nc1ccc(Cl)c(C(F)(F)F)c1)C(Cc1ccccc1)NS(=O)(=O)c1ccc(Br)s1 (stereo not drawn) | 4%
CCC(=O)N1CCc2cc(CNS(=O)(=O)c3cc(Cl)ccc3OC)ccc21 | 8%
COc1ccc(OC(C)C(=O)NC2CCCCCCC2)cc1 (stereo not drawn) | -3%
CCOC(=O)C(C(=O)NCc1ccc(F)cc1)c1ncc(C(F)(F)F)cc1Cl (stereo not drawn) | -21%
CN(C)CCCn1c2c3ccccc3ccc2c2oc(=O)c3ccccc3c21 | 12%
CC1=CC(=O)[C@@H](OC(=O)Nc2ccc(C)cc2)[C@@H](c2ccccc2Br)N1C | -15%

Taken from above.
VDR inhibitor result of O=C(Nc1ccc(Cl)c(C(F)(F)F)c1)C(Cc1ccccc1)NS(=O)(=O)c1ccc(Br)s1 (stereo not drawn) : 4%
VDR inhibitor result of CC1CCCCN1CCNC(=O)C1CCCN(c2ncnc3c2nc2n3CCCCC2)C1 (stereo not drawn) : 3%
VDR inhibitor result of CC(=O)NC1(C(F)(F)F)C(=O)NC(C)=C1C#N (stereo not drawn) : -3%

(next part)
mol | VDR inhibitor
COc1ccc(NC(=O)c2cc3ccccn3n2)cc1 | 3%
O=C(CSC1CC(=O)N(CCc2ccccc2)C1=O)Nc1cccc(Cl)c1 (stereo not drawn) | 79µM*
O=C(COc1ccccc1F)Nc1c(C(=O)Nc2cccc(F)c2)oc2ccccc12 | 11%
CC1(C)C(C=C(Cl)Cl)C1C(=O)OCc1cccc(Oc2ccccc2)c1 (stereo not drawn) | 8%&1%
CN(CC(=O)Nc1cccc(F)c1)C(=O)c1cccc2ccccc12 | -3%
O=C(OC1CCCCC1=O)c1cccc(S(=O)(=O)NCc2ccccc2)c1 (stereo not drawn) | -1%
O=[N+]([O-])c1cc(S(=O)(=O)N2CCCC2)ccc1OCCOc1ccccc1 | -2%
CCOc1ccc(NC(=O)c2ccc3c(c2)OCCO3)cc1S(=O)(=O)N(CC)CC | 12%
COc1ccc(CCNC(=O)CCc2c(C)c3ccc(O)c(C)c3oc2=O)cc1 | 4%
C/C(=C\c1cccc(Cl)c1Cl)C(=O)c1c(C)cc(C)[nH]c1=O | -5%
COCCCNC(=O)Cc1ccccc1OC | -5%
O=C1[C@@H]2Cc3c([nH]c4ccccc34)C(c3ccc(Cl)cc3)N2C(=O)CN1CCO (stereo partly drawn) | -25%
Cc1cc(C)cc(NC(=O)CN(C)S(=O)(=O)c2ccc3c(c2)CCC(=O)N3)c1 | -1%
COc1ccc(S(=O)(=O)N2CCN(Cc3cc4c(cc3Br)OCCO4)CC2)cc1 | ?
CCOC(=O)c1ccccc1NC(=O)CSc1nncn1C | 2%
Cc1ccc(C(=O)c2coc3ccc(O)c(CN4CCN(C)CC4)c23)cc1 | 14%

Part of the list above, reformatted:
C/C(=C\c1cccc(Cl)c1Cl)C(=O)c1c(C)cc(C)[nH]c1=O
  VDR inhibitor: -5%

COCCCNC(=O)Cc1ccccc1OC
  VDR inhibitor: -5%

Remaining list, next part
mol | VDR inhibitor
COc1ccccc1-n1c(=O)[nH]c2c(C(N)=O)nc(-c3cccnc3)nc21 | -12%
O=S(=O)(c1ccccc1)n1ccc2cccnc21 | 8%
COC(=O)c1ccccc1NC(=O)c1cc2cc(C)ccc2n1C | 12%
CCOC(=O)c1c(NC(=O)c2cc(=O)c3cc(Cl)ccc3o2)sc(C)c1C | -4%
CCS/C(N)=N/N=C/c1cc(C)ccc1O | -6%
O=C(COc1cccc(NC(=O)c2cccs2)c1)c1ccc(F)cc1 | -9%
Cn1c(=O)c2c(nc(Br)n2CCc2ccccc2)n(C)c1=O | 5%
Cc1ccc(NC(=O)COC(=O)Cn2cnc3ccccc32)c([N+](=O)[O-])c1 | -7%
Cc1ccc(NC(=O)CNC(=O)c2ccc(C(C)(C)C)cc2)cc1S(=O)(=O)N1CCOCC1 | 20%
Cc1ccc(C)c(N2CCN(C(=O)c3cc4cc5ccc(C)cc5nc4o3)CC2)c1 | -17%
CCOC(=O)C1=C(C)NC(=O)NC1c1ccc(-c2ccccc2F)o1 (stereo not drawn) | -9%
O=C(CCl)Nc1ccc(-c2ccccc2)cc1 | -8%
O=c1c(Cl)c(Cl)cnn1Cc1nnc(-c2ccc(Cl)cc2)o1 | ?
COc1ccc(/C=C2\CCCC3C2=NN(C(=O)CSc2n[nH]c(N)n2)C3c2ccc(OC)cc2)cc1 (stereo not drawn) | -2%
COc1ccc(C(c2sc3ncnn3c2O)N2CC(C)OC(C)C2)cc1OC (stereo not drawn) | -12%
CN(C)S(=O)(=O)c1cccc(NC(=S)NCCCn2ccnc2)c1 | -25%
COCCn1c(=O)c(-c2cc(F)cc(F)c2)nc2cnc(Nc3cccc(OC)c3)nc21 | -1%
COc1ccc(Cl)cc1NC(=O)C(C)N1Cc2ccccc2C1=O (stereo not drawn) | 17%
O=C(CC1S/C(=N/N=C/c2c[nH]c3ccc(OCc4ccccc4)cc23)NC1=O)Nc1ccccc1 (stereo not drawn) | -23%
CCN(c1ccccc1)S(=O)(=O)c1ccc(C(=O)Nc2ccccc2OC)cc1 | 2%
CC12CCC(C(=O)Nc3ccc(Cl)cc3)([C@H](Br)C1=O)C2(C)C (stereo partly drawn) | -10%
Cc1ccc(NC(=O)C(C)Sc2nc3c(c(=O)[nH]2)CCCC3)cc1Cl (stereo not drawn) | 6%
CCOc1ccc(N(C)C(=O)CCc2nnc3ccc(NCc4ccco4)nn23)cc1 | -10%
CC(C)(C)CC(=O)NCc1ccc(F)cc1 | 5%
CCOC(=O)c1cncc(C(=O)O)c1 | 13%
CS(=O)(=O)N1CCC2(CCCN(c3ccncc3)C2)CC1 | -3%
CCOC(=O)NC(=O)CSc1nc2ccc(C)cc2[nH]1 | 2%
CN1CCN(CC(=O)NN2CC(=O)N(c3ccc(F)cc3)CC2=O)CC1 | -9%
COc1ccc(S(=O)(=O)CCC(=O)N2CC(=O)N(CCc3ccccc3)C(=O)C2)cc1 | -11%
O=C(NCc1ccccn1)c1ccc(OC2CCN(Cc3cccs3)CC2)cc1 | -15%
N#Cc1nc(-c2ccco2)oc1NCCN1CCOCC1 | 10%
COc1ccc(C2CC(c3ccc4ccccc4c3OC(C)=O)=NN2C(=O)/C=C/c2ccccc2)cc1 (stereo not drawn) | ?
COc1ccccc1N1CCN(C(=O)CCNC(=O)Cn2ccc3ccccc3c2=O)CC1 | -10%
Cc1ccc(S(=O)(=O)NC(CC(=O)O)c2ccco2)cc1 (stereo not drawn) | 6%
COC(=O)c1[nH]c2cc(OC)ccc2c1N=CN(C)C | -7%
CN(C)c1nc(Nn2cnnc2)nc(N(C)C)n1 | -13%
Cc1ccc(S(=O)(=O)N2CCCc3cc(NS(=O)(=O)c4cc(F)ccc4F)ccc32)cc1 | 15%
COc1ccc(C2(C(=O)NCCc3ccccc3)CCCC2)cc1OC | -10%
O=C(c1nc2ccccc2[nH]1)c1ccccc1[N+](=O)[O-] | -14%
COc1ccc2c(Cl)c(-c3nnc(SCC(N)=O)n3C)sc2c1 | 13%
O=c1c2ccccc2nc2c3ccccc3c(NCc3ccco3)nn12 | -17%
